LASV entry inh = blocks Lassa virus binding to or entry into cells | 300,000 compounds, 1.2% hits | Lassa virus pseudotype entry inhibition, cell reporter; control for the full effect not named in the record | Potency, µM (highest dose often 37.9 µM), without a hit: at the top dose activity change, negative = inhibition, most hits filed as inhibitors; active means well fitted inhibition curve with a large enough effect; inconclusive means small, poorly fitted or top-dose-only effect, or effect the other way; inactive means flat fitted curve, though single readings scatter; tested in HEK293 cells; note: % is set by controls: 0 for no effect and ±100 for the full control effect; nearly all actives have a fitted effect of over 50% in size; luciferase read-out
NS1 inh = blocks influenza NS1 protein function; 270,000 compounds, 0.4% hits; AID 2326; S. cerevisiae slowed by influenza A NS1, growth recovery by OD600; Potency, µM (series often up to 46.1 µM), for the others: at the top dose activity, positive = more growth; active means well fitted rising curve with a large enough effect; inconclusive means small, poorly fitted or top-dose-only effect; inactive means no such curve, though single readings can be large or run the other way; note: nearly all actives have a fitted effect of over 50% in size
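Recovery from NS1-induced slow growth read by OD600 in budding yeast switched to galactose assay medium (pH 6.0, -URA) at 1:100 dilution. Compound 23 nl per well; the matching strain lacking NS1 serves as control.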
SARS PLpro yeast = inhibitors of SARS-CoV papain-like protease in yeast; S. cerevisiae expressing SARS-CoV PLpro, growth rescue; control for the full effect not named in the record; Potency, µM (highest dose often 32.9 µM), inactives show at the top dose activity, positive = growth rescue; 330,000 compounds, 0.19% hits; AID 485353; active means well fitted rising curve with a large enough effect; inconclusive means small, poorly fitted or top-dose-only effect; inactive means no such curve, though single readings can be large or run the other way; note: 0% is about no effect; nearly all actives have a fitted effect of over 55% in size; growth read by luminescence after 48 h
StopGo reporter = FMDV 2A StopGo reporter, luciferase signal; human cells with a luciferase reporter of 2A StopGo recoding; control for the full effect not named in the record; Potency, µM (highest dose often 57.9 µM), for inactives: top-dose signal change, negative = less light; 410,000 compounds, 1.2% hits; AID 1159524; active = well fitted falling curve with a large enough effect; inconclusive = small, poorly fitted or top-dose-only effect; inactive = no such curve, though single readings can be large or run the other way; tested in HEK293T cells; note: % is set by controls: 0 for no effect and ±100 for the full control effect; nearly all actives have a fitted effect of over 45% in size; luciferase light after 4 h
RE007 growth inh = less growth of the S. pombe RE007 Vpr strain. S. pombe RE007 Vpr strain, BacTiter-Glo ATP luminescence, 24 h; control for the full effect not named in the record. Potency, µM (doses to about 92.2 µM), inactives show at the top dose activity change, negative = less growth. 360,000 compounds, 0.21% hits. AID 651644; active = well fitted falling curve with a large enough effect; inconclusive = small, poorly fitted or top-dose-only effect; inactive = no such curve, though single readings can be large or run the other way;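 note: % is set by controls: 0 for no effect and ±100 for the full control effect; nearly all actives have a fitted effect of over 50% in size; the assay follows cell death caused by Vpr and the record does not say whether a fall means rescue or toxicity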
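Fission yeast strain RE007, carrying one chromosomally integrated HIV-1 vpr copy, was seeded at OD 0.01 in PMG+AL medium with 23 nL pinned compound. After 24 h at 30 °C and 99% humidity, viability was read by BacTiter-Glo luminescence.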
Cruzain noTriton = inhibitors of Trypanosoma cruzi cruzain without detergent | purified cruzain, Z-FR-AMC fluorescence, no detergent | Potency, µM, inactives show max response, negative = inhibition, usual class: inhibitors | 200,000 compounds, 2.3% hits | P25779 | AID 1476;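 note: plate controls were enzyme without inhibitor for no effect and buffer without enzyme for full effect; nearly all actives have a fitted effect of over 40% in size; top concentration of the series not given in the record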
Target sequence (P25779 123-467 limits assumed): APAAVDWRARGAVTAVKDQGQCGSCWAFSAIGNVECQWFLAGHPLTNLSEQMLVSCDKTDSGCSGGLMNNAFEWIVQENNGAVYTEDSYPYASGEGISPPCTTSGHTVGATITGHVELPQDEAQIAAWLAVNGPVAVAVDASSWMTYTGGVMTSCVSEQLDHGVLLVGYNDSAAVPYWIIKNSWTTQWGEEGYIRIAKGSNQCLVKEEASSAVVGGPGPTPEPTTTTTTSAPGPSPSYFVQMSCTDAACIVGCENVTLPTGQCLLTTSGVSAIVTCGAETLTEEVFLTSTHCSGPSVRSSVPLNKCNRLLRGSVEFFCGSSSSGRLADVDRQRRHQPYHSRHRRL
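Purified cruzain at 1.5 nM, pre-incubated 15 min with compound at room temperature in 100 mM sodium acetate pH 5.5, 5 mM DTT, 0.00005% Triton X-100. Reaction started with 2 uM Z-FR-AMC; AMC fluorescence increase over 60 s gives rate.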
Cruzain Triton = cruzain (T. cruzi) inhibition with detergent; P25779; Potency, µM, without a hit: max response, negative = inhibition, hits mostly inhibitors; AID 1478; 200,000 compounds, 0.43% hits; purified cruzain, Z-FR-AMC fluorescence, 0.01% Triton;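 note: plate controls were neutral wells for no effect and buffer without enzyme for full effect; nearly all actives have a fitted effect of over 40% in size; top concentration of the series not given in the record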
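Steps: dispense cruzain (1.5 nM final) in acetate buffer pH 5.5 with DTT and 0.01% Triton X-100; pin-transfer compounds; incubate 15 min RT; add Z-FR-AMC (2 uM final); read fluorescence every 30 s, using the 60 s intensity change.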
MARV entry inh = Marburg virus entry inhibition; Marburg virus pseudotyped entry inhibition, cell reporter; control for the full effect not named in the record; about a third of the inactives were read at about 46 µM; Potency, µM (series often up to 37.8 µM), inactives show top-dose activity change, negative = inhibition, usual class: inhibitors; 300,000 compounds, 1.8% hits; active = well fitted inhibition curve with a large enough effect; inconclusive = small, poorly fitted or top-dose-only effect, or effect the other way; inactive = flat fitted curve, though single readings scatter; tested in HEK293 cells; about a fifth of its hits are not listed in these tables; note: % is set by controls: 0 for no effect and ±100 for the full control effect; luciferase read-out
* = called active by the depositor; ? = inconclusive; / = not tested or not shown; & = joins results of further samples; [ ] = remark or other dose. Unless noted, calls come from the whole dose curve; as a rule, active = well fitted curve in the direction sought with a large enough effect; inconclusive = small, poorly fitted or top-dose-only effect, or another doubt; inactive = no such curve, though single readings can be large; an effect the other way counts as inactive or inconclusive. Potency is the fitted concentration of half-maximal effect.

Every second line gives: LASV entry inh | RE007 growth inh | NS1 inh | Cruzain Triton | Cruzain noTriton | StopGo reporter | MARV entry inh | SARS PLpro yeast
> CCc1nc(N)c(C#N)c(-c2ccccc2OC)c1C
 : ? | 13.0% | -8.2% | 0.0% | -10.2% | ? | -2.8% | -1.6%
> CCN1C(=O)c2ccccc2S(=O)c2ccc(C(=O)NCc3ccc(C)cc3)cc21 (stereo not drawn)
 : 1.9%[46.1 µM] | / | / | -0.5% | 2.5% | 0.7% | 12.3%[46.1 µM] | /
> CCc1ccc(OCC(=O)N/N=C(\C)c2ccc3c(c2)OCCO3)cc1
 : ? | -4.8% | -14.6% | -4.2% | 6.9% | 5.8% | ? | -27.4%
> Cc1ccc(S(=O)(=O)NCC(C)NS(=O)(=O)c2ccccc2[N+](=O)[O-])cc1 (stereo not drawn)
 : / | -4.3% | -5.0% | / | / | 12.7% | / | -3.4%
> CC(=O)N1CCCc2cc(S(=O)(=O)N3CCC(C(=O)NCc4ccc(N(C)C)cc4)CC3)ccc21
 : -9.1%[46.1 µM] | / | / | -0.8% | -5.2% | ? | / | /
> COc1ccc(CNC(=O)CN2CCC(n3nnc4cc(F)ccc43)CC2)cc1
 : -1.8% | -3.2% | -0.1% | / | / | -25.9% | -19.9%[46.1 µM] | 0.7%
> COc1ccc(C2NC(=O)CS2)cc1OC (stereo not drawn)
 : 21.2% | 0.0% | -5.2% | 4.8% | 5.0% | 15.9% | 6.4% | 0.5%
> CC1(NC(=O)NCCCCCCNC(=O)NC2(C)CCS(=O)(=O)C2)CCS(=O)(=O)C1 (stereo not drawn)
 : 11.4% | 14.0% | 1.7% | / | / | 7.1% | -7.5%[46.1 µM] | -1.3%
> COc1ccccc1CCC(=O)N1CCC(n2nccc2NC(=O)C2CCOC2)CC1 (stereo not drawn)
 : 8.3% | -9.0% | -0.1% | / | / | -3.2% | 28.6% | -0.7%
> CC(=O)N(C(C)=O)N1C(=O)/C(=C/c2ccc(Cl)cc2)SC1=S
 : ? | ? | / | / | / | -28.1% | ? | -2.9%
> CC(C)(C)c1ccc(CN(Cc2ccco2)c2cnc(S(C)(=O)=O)nc2C(=O)Nc2ccc(F)cc2)cc1
 : -25.0%[46.1 µM] | / | / | -3.6% | 7.94µM* | -9.4% | ? | /
> CC(C)C[C@H](CO)Nc1nc(N(C)c2cccc(Cl)c2)c2ncn(C(C)C)c2n1
 : / | -10.9% | -37.6% | / | / | -1.0% | / | 3.6%
> Cc1cccc(-c2n[nH]c([N+](=O)[O-])n2)c1
 : 2.9% | 14.2% | -2.2% | 3.9% | 5.3% | 9.3% | 1.0% | 2.8%
> O=C(CCSCc1cccc(Cl)c1)NCCc1ccc(Cl)cc1
 : ? | -17.1% | -14.7% | -1.1%&-8.6% | -12.6%&6.7% | -11.9%&-24.2% | 21.1%&21.1% | -21.7%
> O=C(CSc1nc(=O)n(CCN2CCOCC2)c2c1CCC2)Nc1ccc(F)cc1F
 : 7.6%[46.1 µM] | / | / | 2.0% | 4.1% | -12.7% | / | /
> CNC1(C(N)=O)CCN(Cc2ccccc2)CC1
 : -15.7%[46.1 µM] | 5.0% | / | / | / | -0.2% | -2.6%[46.1 µM] | /
> Cc1ccc(Cl)cc1N1CCN(S(=O)(=O)c2ccc3[nH]c(=O)c(=O)[nH]c3c2)CC1
 : -15.4% | 11.1% | / | / | / | -16.8% | 12.7%[46.1 µM] | 2.1%
> Cc1ccc(N=c2oc3cc(O)ccc3cc2C(N)=O)cc1
 : ? | -22.0% | -186.8% | -13.1% | ? | -2.0% | ? | -46.5%
> O=C(Nc1ccc(S(=O)(=O)Nc2ccc(Cl)cc2)cc1)C1CCCO1 (stereo not drawn)
 : ? | 9.9% | -17.9% | -0.2% | -3.5% | 1.9% | -14.5% | 7.5%
> COc1ccc(CCNC(=O)CN(c2cc(C)cc(C)c2)S(=O)(=O)c2c(C)noc2C)cc1OC
 : / | -4.3% | -26.6% | / | / | -15.3% | / | -3.6%

Continued; it opens with the 3 that closed the last part.
Every second line gives: LASV entry inh | RE007 growth inh | NS1 inh | Cruzain Triton | Cruzain noTriton | StopGo reporter | MARV entry inh | SARS PLpro yeast
> Cc1ccc(N=c2oc3cc(O)ccc3cc2C(N)=O)cc1
 : ? | -22.0% | -186.8% | -13.1% | ? | -2.0% | ? | -46.5%
> O=C(Nc1ccc(S(=O)(=O)Nc2ccc(Cl)cc2)cc1)C1CCCO1 (stereo not drawn)
 : ? | 9.9% | -17.9% | -0.2% | -3.5% | 1.9% | -14.5% | 7.5%
> COc1ccc(CCNC(=O)CN(c2cc(C)cc(C)c2)S(=O)(=O)c2c(C)noc2C)cc1OC
 : / | -4.3% | -26.6% | / | / | -15.3% | / | -3.6%
> CCOC(=O)c1ccccc1NC(=O)CSc1nnc(C)c(=O)[nH]1
 : / | 1.8% | 7.8% | / | / | -20.6% | 16.1%[46.1 µM] | 0.8%
> CCCN(CCC)CCNC(=O)c1nn(C)c2c1CS(=O)(=O)c1ccccc1-2
 : 16.1%[46.1 µM] | / | / | -3.6% | 2.2% | -3.1% | / | /
> Cc1ccc(N2CC(C(=O)Oc3cccc(N4C(=O)CCC4=O)c3)CC2=O)cc1 (stereo not drawn)
 : -10.8% | 12.1% | -2.9% | -2.7% | -3.8% | 3.1% | 15.6% | -0.5%
> CCn1c(SCC(=O)c2ccccc2)nnc1-c1cccs1
 : ? | -8.0% | -18.9% | 1.1% | -0.6% | 30.5%[activator] | 6.9% | -1.6%
> Cn1c(SCc2ccccc2)nnc1-c1ccncc1
 : 27.4% | -12.1% | 9.5% | 1.3% | ? | -11.5% | -9.6% | 0.3%
> COc1cc(C2NC(=S)NC(C)=C2C(=O)Nc2cc(C)cc(C)c2)ccc1O (stereo not drawn)
 : / | 6.7% | 4.0% | / | / | -24.6% | / | 0.0%
> OC(CN1CCCCC1)c1ccc(Br)cc1 (stereo not drawn)
 : 0.7%[46.1 µM] | 11.1% | / | / | / | -8.5% | 0.1%[46.1 µM] | /
> COc1ccc(-c2nc(S(=O)(=O)c3ccc(C)cc3)c(N3CCCC3)o2)cc1
 : -1.0% | -0.7% | -13.6% | -2.7% | 6.9% | -13.7% | ? | -3.2%
> CCOc1ccccc1NC(=O)Cc1coc2cc(C)ccc12
 : -10.5% | ? | -122.0% | -2.0% | -0.1% | -14.7% | -16.0%[46.1 µM] | -18.2%
> CCOc1ncccc1C(=O)Nc1nc(SC)ns1
 : -20.4%[46.1 µM] | -7.7% | / | / | / | 26.1% | ? | -0.3%
> CCCn1c(NC(=O)C2CCN(C(=O)c3ccccc3C)CC2)nc2ccccc21
 : ? | -0.6% | / | / | / | 0.0% | ? | -0.8%
> Cc1n[nH]c(C)c1CCCOc1ccccc1
 : 13.5% | 11.6% | -15.1% | 5.6% | -7.0% | -25.0% | ? | ?
> O=C(CNC(=O)c1ccccc1)OCC(=O)N1c2ccccc2Sc2ccccc21
 : 1.0% | -1.1% | 13.9% | 10µM* | 10µM* | -10.8% | ? | -4.8%
> CC1CCc2cc(F)cc3c(O)c(C(=O)NCc4ccco4)c(=O)n1c23 (stereo not drawn)
 : -2.1% | -11.1% | 12.7% | -8.2% | -18.0% | -3.2% | 11.3%&0.5% | -5.9%
> COc1ccccc1NC(=O)Nc1ccccc1C(=O)NCCCN1CCOCC1
 : 2.7% | 0.3% | 1.5% | / | / | -6.2% | ? | -0.2%
> COc1ccc(C2(CNC(=O)c3cccc([N+](=O)[O-])c3)CCOCC2)cc1OC
 : ? | -2.7% | -3.8% | 0.9% | 4.2% | -10.4% | 7.6% | 26.7%
> CCOC(=O)c1scc(-c2ccc(C)cc2)c1S(=O)(=O)Nc1ccc(F)c(F)c1
 : 1.2%[46.1 µM] | / | / | 0.1% | -7.3% | 49.6%[activator] | / | /
> O=C(NCc1ccccc1Cl)c1ccc2c(c1)N(Cc1ccccc1)C(=O)CS2
 : -27.4%[46.1 µM] | / | / | 1.5% | ? | 22.6% | / | /
> CCc1ccccc1NC(=O)N1CCC(NC(=O)C(Cc2ccccc2)NC(C)=O)CC1 (stereo not drawn)
 : 8.8% | 0.8% | 2.6% | / | / | -8.7% | 3.8% | -0.8%
> Nc1cc(=O)[nH]c(SCC(=O)c2ccc(O)cc2O)n1
 : -17.6%[46.1 µM] | 0.9% | 2.0% | / | / | 7.0% | 1.7%[46.1 µM] | 0.8%
> Cc1cccc(N2CCN(C(=O)CN3C(=O)NC(C)(C)C3=O)CC2)c1C
 : / | -5.3% | 1.7% | / | / | 20.1% | / | 0.3%
> COc1ccc(CCC(=O)Nc2nnc(C(C)(C)C)s2)cc1
 : / | -15.3% | 1.4% | / | / | -15.4% | / | -2.6%
> Cc1c(Cl)c([N+](=O)[O-])nn1Cc1ccc(C(=O)N/N=C\c2cccc(Br)c2)o1
 : -27.3% | 6.1% | 7.7% | 3.1% | ? | -15.7% | ? | 1.0%
> O=C(CCC1CCCN(C(=O)c2ccc3c(c2)OCCO3)C1)NCc1ccccc1F (stereo not drawn)
 : -0.4%[46.1 µM] | 4.6% | -3.8% | / | / | 22.0% | ? | 0.9%
> C=C(C)C(=O)Nc1cccc(C2=NOC3(C2)C[C@H](C(N)=O)N(C(=O)CC)C3)c1 (stereo partly drawn)
 : / | -0.5% | 1.4% | / | / | -9.4% | / | -0.8%
> COc1ccc(CCNC(=O)c2ccc(Cn3c(=O)c4ccccc4n(Cc4cccc(C)c4)c3=O)cc2)cc1OC
 : ? | / | / | 2.6% | -4.8% | -22.2% | -1.1%[46.1 µM] | /
> Cn1c(=O)[nH]c(=O)c2c1nc(NCc1ccccc1)n2CC(O)c1ccccc1 (stereo not drawn)
 : -0.8% | 4.1% | -2.2% | -2.4% | 6.0% | -13.7% | -18.3% | 4.1%
> O=C(CCNS(=O)(=O)c1cccc2nsnc12)Nc1ccc2c(c1)OCCO2
 : -3.1% | -0.5% | 1.9% | 3.7% | -2.3% | -13.3% | 4.9%&4.9% | 6.2%

Screening data from PubChem BioAssay.
